AmpC nodet inh – Promiscuous and Specific Inhibitors of AmpC Beta-Lactamase (assay without detergent); P00811; AmpC nitrocefin hydrolysis, absorbance 480 nm, no detergent; potencies from a single point are estimates; Potency, µM (series often up to 28.7 µM), for the others: at the top dose activity change, negative = inhibition; 71,000 compounds, 1.8% hits; active = falling curve, for most hits resting on a single point; inconclusive = weak or doubtful change; inactive = flat or rising curve; also: % of control where 0% means no effect; about half of the hits show no inhibition at the top dose; a quarter of the inactives give rising signals
Target sequence (P00811 whole entry, looked up): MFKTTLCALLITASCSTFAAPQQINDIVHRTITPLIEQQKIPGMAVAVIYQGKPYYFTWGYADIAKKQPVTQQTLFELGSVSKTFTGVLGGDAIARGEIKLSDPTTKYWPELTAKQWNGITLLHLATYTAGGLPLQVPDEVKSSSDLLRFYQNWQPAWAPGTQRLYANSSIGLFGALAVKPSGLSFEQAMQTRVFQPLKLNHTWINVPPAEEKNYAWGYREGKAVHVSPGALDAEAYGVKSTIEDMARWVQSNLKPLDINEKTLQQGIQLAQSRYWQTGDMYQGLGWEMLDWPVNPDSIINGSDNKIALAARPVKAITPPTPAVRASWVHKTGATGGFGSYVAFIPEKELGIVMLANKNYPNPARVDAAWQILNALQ
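Enzyme, pH 7.0 phosphate. Compound titrations were pre-incubated with AmpC for 15 min at room temperature before nitrocefin (stock 800 uM) addition; product formation was recorded at 480 nm every 20 s for 4 min.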
* = called active by the depositor; ? = inconclusive; [ ] = dose if it differs, or a comment. Potency is read from the fitted curve at half-maximal effect. Some of the compounds tested; the hit share may differ from the screen's.

canonical_smiles	AmpC nodet inh
COc1ccc2nccc(SCC(=O)O)c2c1	3%[5.75 µM]
CCOc1ccccc1C1CC(c2ccc(F)cc2)Nc2nc(N)nn21 (stereo not drawn)	63%
Cc1ccc2cc3cc(C(=O)NCc4ccco4)oc3nc2c1	8%
Cn1c(=O)cc(SCC(=O)NCCCN2CCOCC2)c2ccccc21	2%
COc1ccc(N2CC(O)=C(c3nc4ccccc4s3)C2=N)c(OC)c1	48%
CCOC(=O)c1ccccc1NC(=O)c1cncc(Br)c1	-9%
O=C(NCCCCC(NC(=O)C1CCCCC1)C(=O)O)c1ccccc1 (stereo not drawn)	-4%
O=C(CC(SCc1ccco1)c1ccc(O)cc1)c1cccs1 (stereo not drawn)	-18%
CC(=O)C1=C(C)NC(SCSc2ccccc2)=C(C#N)C1c1cccnc1 (stereo not drawn)	80%
CN(C(=O)COC(=O)c1ccc2c(c1)OCO2)C1CCS(=O)(=O)C1 (stereo not drawn)	14%
Cc1cc(C)n(-c2ccc(Cl)c(C(=O)Nc3ccc(-c4nnc5n4CCCCC5)cc3)n2)n1	64%
CCn1c(SCC(=O)N2CCCC2)nnc1-c1ccc(S(=O)(=O)N2CCCCCC2)cc1	89%

canonical_smiles	AmpC nodet inh
Cc1cc(=O)n2[nH]c(-c3ccc(F)cc3)nc2n1	-2%
Cc1ccc(-c2nc(C3CCN(S(C)(=O)=O)CC3)no2)cc1	37%
CCOC(=O)C1CCN(C(=O)Cn2cc(C(=O)c3ccco3)c3ccccc32)CC1	22%
O=c1c2cc3c(cc2[nH]c(=S)n1CCN1CCOCC1)OCO3	-20%
COc1c2c(cc3c1OCO3)CCN(C)C2	-6%[12.8 µM]
CCc1nc2ccccc2c(C(=O)OC2CCOC2=O)c1C (stereo not drawn)	3%
CS(=O)(=O)NC1CCN(Cc2ccccc2)CC1	0%
CCc1ccccc1OCC(=O)NC1CCCC1	9%
O=C(CSc1ccc2c(c1)OCCO2)NCC1CCCO1 (stereo not drawn)	-5%
Cc1ccc(C(=O)Nc2ccc(O)c(C(=O)O)c2)o1	8%
CCCCOc1ccc(S(=O)(=O)NCc2csc(C)n2)cc1	23%
O=C(Nc1ccncc1)c1cccc(F)c1	-2%

canonical_smiles	AmpC nodet inh
CCOC(=O)C1=C(C)OC(N)=C(C#N)C1c1c(C)nn(-c2ccccc2)c1Cl (stereo not drawn)	17%
CCOCCOCN(C#N)c1nc(OC)nc(N(C)C)n1	3%
Cc1ccc(N(C(=O)C2CCCC2)C2C=CS(=O)(=O)C2)cc1 (stereo not drawn)	-3%
Cc1ccc(CN2C(=O)CSc3ccc(C(=O)NCCN4CCOCC4)cc32)cc1	81%
O=C1C=C(NCCc2cc(Br)c(O)c(Br)c2)C(=O)c2ncccc21	-3%[5.75 µM]
COc1cc2c(cc1NC(=O)CN(C)Cc1nc3ccccc3c(=O)[nH]1)oc1ccccc12	121%
Cc1ccc(S(=O)(=O)Nc2nsc(N)n2)cc1	-12%
COc1ccc(C2C(C(=O)OCC(=O)N3CCCCC3)CCC(=O)N2c2ccc(OC)cc2)cc1 (stereo not drawn)	110%
CCN(CC)S(=O)(=O)c1ccc(Nc2nc3ccccc3n3nnnc23)cc1	25%
COc1ccc(-c2nc3cnc(N4CCOCC4)nc3n(Cc3cccc(OC)c3)c2=O)cc1	-9%
O=S(=O)(NCC1CCCO1)c1ccc(S(=O)(=O)N2CCc3ccccc3C2)cc1 (stereo not drawn)	23%
CCNc1ncc2nc(-c3cn(C)c4ccccc34)c(=O)n(C[C@H]3CCCO3)c2n1	2%

canonical_smiles	AmpC nodet inh
CCOC(=O)C1=C(CSc2nncn2C)NC(=O)NC1c1cc(OCC)ccc1OCC (stereo not drawn)	12%
COc1ccc(NC(=O)N2CCCC3(CCN(S(=O)(=O)c4ccccc4)CC3)C2)cc1	48%
CC1(C)CC(=O)C(CC(=O)Nc2ccc(S(N)(=O)=O)cc2)=C(O)C1	-16%
COc1ccc(Br)cc1/C=c1\sc2nc(-c3ccco3)nn2c1=O	?
Clc1ccccc1-c1nnn(Cc2ccc(-c3nn[nH]n3)cc2)n1	-16%
Cc1cc(C)n2c(SCc3cccs3)nnc2n1	14%
COCCN(C(=O)CNC(=O)c1cccs1)C(C(=O)NC1CCCC1)c1cccs1 (stereo not drawn)	4%
CCOC(=O)N1CCC(NC(=O)CCc2c(C)nc3nc(C)nn3c2C)CC1	6%
C1=C(c2ccc(-c3ccccc3)cc2)Nc2ncnn2C1c1ccco1 (stereo not drawn)	34%
Cc1noc(C)c1COC(=O)c1ccccc1NC(=O)Cc1ccccc1	16%
O=C(CSCC(=O)NCc1ccco1)NCc1ccco1	3%
O=C(c1ccncc1)N1CCC2(CC1)CCN(c1ccccn1)CC2	31%

canonical_smiles	AmpC nodet inh
COc1ccc2[nH]c(=O)c(C(c3nnnn3C3CCCCC3)N3CCN(C)CC3)cc2c1 (stereo not drawn)	62%
CC1=C(C(=O)OCc2ccccc2)C(c2ccc(C(C)(C)C)cc2)NC(=O)N1CCCCCC(=O)O (stereo not drawn)	29%
Cc1ccccc1C(=O)c1cccn1CC(=O)NCC1CCCO1 (stereo not drawn)	27%
Ic1ccccc1CN[C@@H]1C2CCN(CC2)[C@H]1C(c1ccccc1)c1ccccc1	91%
CC1(C)CCC(=O)N[C@H]1CC(=O)C[C@H]1NC(=O)CCC1(C)C	-8%[5.75 µM]
CCC1CCCCN1Cc1nc2c(c(=O)n(C)c(=O)n2C)n1Cc1cccc2ccccc12 (stereo not drawn)	0%
CCOc1ccc2nc(NC(=O)C3CCN(S(=O)(=O)c4cnc[nH]4)CC3)sc2c1	1%
COc1ccc(NC(=O)CC(NCCc2ccccc2)C(=O)O)c(OC)c1 (stereo not drawn)	10%
CCCc1[nH]nc2c1C(c1ccc(OC)c(Cn3nc(C)c(Br)c3C)c1)C(C#N)=C(N)O2 (stereo not drawn)	5%
O=C(Cn1c(=O)sc2ccccc21)N1CCOCC1	2%
COc1ccc(OC)c(NC(=O)CCN2CCN(c3ccccc3)CC2)c1	70%
CC(OC(=O)CCc1nc2ccccc2[nH]c1=O)C(=O)c1ccccc1 (stereo not drawn)	18%

Reprinted from the part before: seven entries, followed by the next part.
canonical_smiles	AmpC nodet inh
CCC1CCCCN1Cc1nc2c(c(=O)n(C)c(=O)n2C)n1Cc1cccc2ccccc12 (stereo not drawn)	0%
CCOc1ccc2nc(NC(=O)C3CCN(S(=O)(=O)c4cnc[nH]4)CC3)sc2c1	1%
COc1ccc(NC(=O)CC(NCCc2ccccc2)C(=O)O)c(OC)c1 (stereo not drawn)	10%
CCCc1[nH]nc2c1C(c1ccc(OC)c(Cn3nc(C)c(Br)c3C)c1)C(C#N)=C(N)O2 (stereo not drawn)	5%
O=C(Cn1c(=O)sc2ccccc21)N1CCOCC1	2%
COc1ccc(OC)c(NC(=O)CCN2CCN(c3ccccc3)CC2)c1	70%
CC(OC(=O)CCc1nc2ccccc2[nH]c1=O)C(=O)c1ccccc1 (stereo not drawn)	18%
CC(C)n1c(CNC(=O)c2ccccc2)nc2ccccc21	-12%
O=C(NCCSc1ccccc1)c1ccccc1	-7%
CCN(CC)c1ccc(NC(=O)c2cccc(C)c2OC)c(C)c1	8%
CCCc1cc(=O)[nH]c(SCC(=O)Nc2ccc(OC(F)F)cc2)n1	-15%
O=C(CNCCO)NC12CC3CC(CC(C3)C1)C2	-6%
COc1ccc(-c2nc3ccccc3o2)cc1NC(=O)c1ccc(Br)o1	4%
CCOC(=O)c1ccc(-n2c(C)nc3ccccc3c2=O)cc1	21%
CCN=C1SC(CC(=O)Nc2ccc(N3CCOCC3)cc2)C(=O)N1CC (stereo not drawn)	-4%
COC(=O)c1nc(NC(=O)C(C)C)n[nH]1	-1%
CN(C)CC[C@@H](c1ccccc1)c1ccccn1	-2%[12.8 µM]
CSC1=NP(=S)(SC)N(C)c2nc3n(c21)CCC3 (stereo not drawn)	17%
COc1cc(C)nc(SCC(N)=O)n1	-3%

canonical_smiles	AmpC nodet inh
C=C(C)CSc1nc(N)c(C#N)c(-c2ccc(C)cc2)c1C#N	6.3µM*
CC(C)(C)NC(=O)CN(C(=O)c1ccc(CN2CCOCC2)o1)c1ccc2c(c1)OCCO2	19%
Cc1cccc(N2CCN(C(=O)n3ccnc3)CC2)c1C	35%
O=C(NC(NCc1ccccn1)(C(F)(F)F)C(F)(F)F)c1ccco1	-4%
O=C(O)c1cccc(CN2CCCCC2)c1	-2%[5.75 µM]
CCCc1c(O)nc(SCC(=O)NCCc2ccc(OC)c(OC)c2)[nH]c1=O	3%
CCOC(=O)c1c(C)nc2c3ccccc3ccn12	86%
COc1ccc(C(CNC(=O)c2cccc(N(C)C)c2)N2CCCC2)cc1 (stereo not drawn)	47%
C=CCN1C2CCCC1CC(NC(=O)Nc1cccc(C(C)=O)c1)C2 (stereo not drawn)	-6%
COc1ccc(C2=CC(=O)OC3(CCCCC3)O2)cc1	24%
NC(=O)C1CCN(CC(=O)Nc2ccccn2)CC1	3%
O=C1C2C3CCCC3=C3CCCC3C2C(=O)N1c1ccc(F)cc1 (stereo not drawn)	10%

canonical_smiles	AmpC nodet inh
CC(=O)Nc1ccc(C(=O)OCCC(C)C)cc1	26%
CCOC(=O)C1CCN(c2c(NCCN3CCN(c4ccccc4)CC3)c(=O)c2=O)CC1	4%
CCOc1ccc(C(=O)Nc2ccc(Cl)cn2)cc1Cl	-1%
CCCCNC(=O)c1ccc2c(c1)N(CC)C(=O)c1ccccc1S2(=O)=O	25%
CCC(=O)Nc1cccc(NC(=O)CSc2nnc(-c3ccc(NS(C)(=O)=O)cc3)n2C)c1	7%
C(=C\c1ccccc1)/CSc1nnc(-c2cccnc2)n1Cc1ccco1	65%
COc1ccc(CC(=O)N2CCOCC2)cc1OC	0%
O=S(=O)(c1ccc(OCC(O)CN2CCN(c3ccccc3O)CC2)cc1)N1CCOCC1 (stereo not drawn)	34%
CCNCCNC(=O)c1c(O)c2ccccc2n(CC)c1=O	5%
COc1ccc(C(=O)NCc2nnc(SCC(=O)N3CCCCC3)o2)cc1OC	3%
CC1(C)c2ccccc2N2CC(=O)N(CC(N)=O)C21C (stereo not drawn)	4%
O=C(Cn1ccc2ccccc2c1=O)NCCC(=O)N1CCN(C2CCCCC2)CC1	17%

Part of the list above in order of length of the SMILES, low to high:
canonical_smiles	AmpC nodet inh
CC1(C)c2ccccc2N2CC(=O)N(CC(N)=O)C21C (stereo not drawn)	4%
C(=C\c1ccccc1)/CSc1nnc(-c2cccnc2)n1Cc1ccco1	65%
CCOC(=O)C1CCN(c2c(NCCN3CCN(c4ccccc4)CC3)c(=O)c2=O)CC1	4%

Later entries
canonical_smiles	AmpC nodet inh
N=c1n(Cc2ccccc2)c2ccccc2n1CC(O)c1ccccc1 (stereo not drawn)	23%
O=C(NCCc1ccccc1)c1ncn[nH]1	8%
COc1ccc(C2(O)CCN(CC(=O)Nc3nccs3)CC2)c(OC)c1	22%
O=C(c1oc(=O)c2ccccc2c1-c1ccccc1)N1CCOCC1	19%
O=C(NCCCN1CCCC1=O)Nc1ccc(Cl)cc1	46%
COc1cccc(S(=O)(=O)Nc2ccc(C(=O)N3CCN(C(=O)c4ccco4)CC3)cc2)c1	20%
CCCCOC(=O)CSc1nc2c(c(=O)[nH]c(=O)n2C)n1C/C=C(\C)Cl	24%
O=C(NCc1ccco1)c1ccc(CS(=O)(=O)Cc2ccc(F)cc2)o1	-8%
O=C(c1cnn2c(C(F)(F)F)cc(-c3ccc4c(c3)OCO4)nc12)N1CCCCC1	61%
CS(=O)(=O)Nc1cccc(-c2cncnc2-n2ccnc2)c1	10%
Cn1c(=N)c(S(=O)(=O)c2ccc(F)cc2)cc2c(=O)n3ccccc3nc21	25%
CCN(CCCNC(=O)CC(C(=O)N1CCc2ccccc21)n1ccnc1)c1ccccc1 (stereo not drawn)	107%

canonical_smiles	AmpC nodet inh
Oc1ccc(Cl)cc1/C=N/c1nc2ccccc2[nH]1	2%
O=C(NCC1CCCO1)c1cc2n(n1)C(C(F)(F)F)CC(c1ccc(F)cc1)N2 (stereo not drawn)	77%
O=C1CC(N2CCC(O)CC2)C(=O)N1c1ccc(Br)cc1 (stereo not drawn)	-4%
c1ccc(CCN2CCOCC2)nc1	-25%[5.75 µM]
CCOc1ccc(NC(C)=O)cc1	2%
COc1ccc(NC(=O)NC(C(F)(F)F)C(F)(F)F)cc1	-10%
O=C(COc1ccccc1)Nc1nc(-c2cccs2)cs1	-5%
Cc1csc(NC(=O)C2CCCN2C(=O)Oc2ccccc2)n1 (stereo not drawn)	14%
Cc1ccc(C)c2[nH]c(=O)c(CCNC(=O)CC(C)C)cc12	3%
COC(=O)CCN(C)CCC(=O)OC	-2%
O=c1cc(Nc2ccc3c(c2)OCCO3)[nH]c(=O)n1Cc1ccc(F)cc1	-11%
COc1cc(NC(=O)c2nccnc2C(=O)O)cc(OC)c1	28%

canonical_smiles	AmpC nodet inh
CC(NS(=O)(=O)c1ccc(Cl)cc1)C(c1cccs1)N1CCN(C)CC1 (stereo not drawn)	5%
CCN(CC)CCNC(=O)CCc1nn(C)c(=O)c2ccccc12	5%
CN(C)C(CNc1nnnn1-c1ccccc1)c1ccco1 (stereo not drawn)	3%
Nc1n[nH]c(-c2ccccc2)c1-c1ccccc1	-6%
Cc1ccc(C)c(N(CC(=O)NC2CCCCC2)C(=O)CCC(=O)Nc2ccccn2)c1	84%
CCN(CC)S(=O)(=O)c1ccc(Cl)c(C(=O)Oc2cccnc2)c1	23%
C=CCSC1=C(C#N)C(c2ccccc2C)CC(=O)N1 (stereo not drawn)	0%
O=C(NCCCCNC(=O)C1CCCC1)C1CCCC1	11%
COc1cc(C)c(C(N)=O)c(OC)n1	-12%
Clc1ccc(Cl)c(Cl)c1	-3%
O=C1C(C=NCc2ccccn2)=C(O)c2ccccc21	-15%
